Bioassay records deposited in PubChem BioAssay by National Center for Advancing Translational Sciences (NCATS).
nsP2pro inh: blocks chikungunya virus nsP2 protease peptide cleavage | FRET peptide cleavage, nsP2pro, fluorescence 1 h | AID 1964107 | actives 1.1% (n = 31,000) | Q8JUX6 | Potency, µM (doses to about 24.9 µM), inactives show at the highest dose activity change, negative = inhibition, most hits filed as inhibitors; active means well fitted inhibition curve with a large enough effect; inconclusive means small, poorly fitted or top-dose-only effect; inactive means no such curve, though single readings can be large or run the other way; further: nearly all actives have a fitted effect of over 60% in size; a reference inhibitor and vehicle were the controls
Target sequence (Q8JUX6 whole entry, looked up): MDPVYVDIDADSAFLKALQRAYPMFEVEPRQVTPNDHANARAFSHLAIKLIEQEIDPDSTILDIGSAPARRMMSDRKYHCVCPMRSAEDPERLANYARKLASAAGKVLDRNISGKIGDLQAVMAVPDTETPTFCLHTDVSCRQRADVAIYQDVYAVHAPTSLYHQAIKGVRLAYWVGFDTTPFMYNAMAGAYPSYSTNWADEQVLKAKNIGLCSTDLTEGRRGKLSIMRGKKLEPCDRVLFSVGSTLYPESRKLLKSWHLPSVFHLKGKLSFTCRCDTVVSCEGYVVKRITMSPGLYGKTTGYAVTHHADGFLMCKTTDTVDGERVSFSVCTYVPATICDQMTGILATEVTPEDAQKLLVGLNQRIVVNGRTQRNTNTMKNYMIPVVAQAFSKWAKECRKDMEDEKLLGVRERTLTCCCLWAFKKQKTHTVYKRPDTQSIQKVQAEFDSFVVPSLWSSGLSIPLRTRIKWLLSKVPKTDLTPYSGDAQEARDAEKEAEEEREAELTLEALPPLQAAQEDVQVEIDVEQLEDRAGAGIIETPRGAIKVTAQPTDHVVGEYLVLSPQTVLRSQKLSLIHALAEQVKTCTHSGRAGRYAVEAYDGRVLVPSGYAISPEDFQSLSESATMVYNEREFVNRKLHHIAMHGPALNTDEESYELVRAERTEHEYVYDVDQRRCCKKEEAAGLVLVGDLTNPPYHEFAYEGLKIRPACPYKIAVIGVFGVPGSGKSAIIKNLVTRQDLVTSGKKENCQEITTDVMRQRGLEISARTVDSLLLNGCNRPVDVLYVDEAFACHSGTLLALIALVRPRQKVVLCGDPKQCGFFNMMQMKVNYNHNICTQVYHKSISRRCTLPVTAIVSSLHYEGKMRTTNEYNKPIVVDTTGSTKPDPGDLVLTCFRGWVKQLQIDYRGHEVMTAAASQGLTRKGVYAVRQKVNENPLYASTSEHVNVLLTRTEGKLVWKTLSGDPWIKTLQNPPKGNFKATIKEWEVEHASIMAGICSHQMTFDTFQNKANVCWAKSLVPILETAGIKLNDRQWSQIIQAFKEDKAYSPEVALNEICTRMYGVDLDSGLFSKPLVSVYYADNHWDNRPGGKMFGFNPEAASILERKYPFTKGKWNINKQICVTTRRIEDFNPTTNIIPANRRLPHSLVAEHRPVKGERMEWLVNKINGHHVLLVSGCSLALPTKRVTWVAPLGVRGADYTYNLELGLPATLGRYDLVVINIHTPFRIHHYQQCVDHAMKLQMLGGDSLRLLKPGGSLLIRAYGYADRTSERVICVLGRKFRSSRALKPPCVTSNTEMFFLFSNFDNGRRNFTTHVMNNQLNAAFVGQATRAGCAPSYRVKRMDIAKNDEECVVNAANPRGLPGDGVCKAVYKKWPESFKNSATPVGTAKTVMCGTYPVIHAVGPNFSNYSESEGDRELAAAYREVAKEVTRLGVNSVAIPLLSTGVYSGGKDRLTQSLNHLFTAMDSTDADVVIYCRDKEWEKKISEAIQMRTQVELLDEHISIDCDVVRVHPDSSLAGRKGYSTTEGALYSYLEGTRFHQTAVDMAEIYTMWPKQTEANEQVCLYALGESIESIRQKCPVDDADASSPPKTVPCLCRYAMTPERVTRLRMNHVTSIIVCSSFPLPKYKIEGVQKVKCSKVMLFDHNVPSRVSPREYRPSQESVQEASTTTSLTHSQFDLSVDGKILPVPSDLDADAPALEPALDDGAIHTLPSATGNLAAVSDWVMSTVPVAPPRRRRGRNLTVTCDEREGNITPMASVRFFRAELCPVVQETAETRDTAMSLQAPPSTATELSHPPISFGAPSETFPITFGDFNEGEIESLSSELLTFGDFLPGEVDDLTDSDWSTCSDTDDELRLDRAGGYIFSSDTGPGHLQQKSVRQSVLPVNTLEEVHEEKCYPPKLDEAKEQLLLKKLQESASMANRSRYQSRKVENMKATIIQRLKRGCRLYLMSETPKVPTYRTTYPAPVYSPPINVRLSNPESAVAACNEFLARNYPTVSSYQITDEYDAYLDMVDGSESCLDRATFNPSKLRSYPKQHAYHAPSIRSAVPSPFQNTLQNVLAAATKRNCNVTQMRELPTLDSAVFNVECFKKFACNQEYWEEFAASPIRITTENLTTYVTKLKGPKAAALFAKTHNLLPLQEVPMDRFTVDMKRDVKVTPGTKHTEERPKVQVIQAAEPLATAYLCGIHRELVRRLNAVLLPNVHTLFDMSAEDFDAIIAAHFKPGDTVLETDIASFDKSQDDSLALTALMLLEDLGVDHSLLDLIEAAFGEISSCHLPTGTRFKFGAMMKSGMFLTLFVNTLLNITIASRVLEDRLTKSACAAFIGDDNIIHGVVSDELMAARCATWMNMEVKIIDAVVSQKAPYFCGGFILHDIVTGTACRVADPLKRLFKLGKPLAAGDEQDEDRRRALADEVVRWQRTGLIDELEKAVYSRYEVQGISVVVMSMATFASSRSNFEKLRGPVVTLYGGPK
Active calls of the source: *; i = inactive; ? = inconclusive; & = joins results of further samples; [ ] = another dose, or the depositor's remark. On the % scale 0 is the no-effect control and ±100 the full control effect; potency means the concentration at half of the fitted maximal effect.

SMILES	nsP2pro inh
C=C1/C(=C/C=C2\CCC[C@]3(C)[C@@H]([C@H](C)CCCC(O)(C(F)(F)F)C(F)(F)F)CC[C@@H]23)C[C@@H](O)C[C@@H]1O	7%
O=S(=O)(c1ccccc1)c1nnn2c1nc(Nc1ccccc1)c1cc(Cl)ccc12	-14%
CC1CCCN(c2ncnc3c2CN(c2ccc(Cl)cc2)C(=O)CN3C)C1 (stereo unspecified)	i
COc1cccc(NCC(F)Cn2c3ccc(Br)cc3c3cc(Br)ccc32)c1 (stereo unspecified)	-18%
O=C(c1ccsc1)N1CCC2(CC1)CN(c1ccncn1)CC2CO (stereo unspecified)	i
O=C(c1ccco1)n1nc(-c2ccccc2)nc1NCc1ccccc1Cl	-21%
O=C(O)c1cc(O)c2c(c1)C(=O)c1cccc(O)c1C2=O	?
CCC(=O)N1CCc2cc(CNS(=O)(=O)c3ccc(NC(=O)CC(C)C)cc3)ccc21	-9%
Cc1nnc(C(C)C)n1C1CC2CCC(C1)N2CC[C@H](NC(=O)C1CCC(F)(F)CC1)c1ccccc1 (stereo partly specified)	-3%&-2%&-1%&-4%
C=C[C@H]1[C@H](O[C@@H]2O[C@H](CO[C@@H]3OC[C@](O)(CO)[C@H]3O)[C@@H](O)[C@H](O)[C@H]2O)OC=C2C(=O)OCC[C@H]21	-2%[10 µM]
O=C(O)CNC(=O)c1c(=O)cc(CCc2ccccc2)n2[nH]cnc12	52%[activator]
O=C(/C=C/c1nc2ccccc2[nH]1)c1c(-c2ccccc2)c2cc(Cl)ccc2[nH]c1=O	23%
CCc1c(C)nn(CC(=O)N2CC(C)(C)[C@@](C)(O)C2)c1C	2%
O=C(Cn1c(=O)oc2cc(S(=O)(=O)NCc3ccccc3)ccc21)N(CCO)Cc1ccccc1	-14%
CCc1ncc(-c2c(-c3ccccc3)ncn2CCCOc2cccnc2)cn1	i
CCn1c(SCC(=O)Nc2cccc(Cl)c2)nnc1-c1nonc1NC(C)=O	-11%
CC1=C(C(=O)Nc2ccon2)C2(CCCC2)N=C(Nc2nc3ccccc3o2)N1	i
O=C1CCCC2=C1C(c1ncccc1C(F)(F)F)N=C(Nc1nc3ccccc3o1)N2 (stereo unspecified)	1%
CCCCCCCCCCCCCCCc1cccc(O)c1C(=O)O	84%&101%[activator]
CCOC(=O)c1c(C)oc2ncnc(Nc3cc(C)cc(C)c3)c12	-19%
CC1CC(O)/C=C/C(O)/C=C\C(=O)O1 (stereo unspecified)	-20%[39.2 µM]
CCOC(=O)C1(Cc2ccccc2F)CCCN(C(=O)c2ccc3c(c2)OCCO3)C1 (stereo unspecified)	-4%
O=C(NC1CCCCC1)O[C@@H]1CO[C@H]2[C@@H]1OC[C@@H]2n1nnnc1-c1ccc2c(c1)OCCO2	i
Cc1ccc(CN2C(=O)OC(c3cccc(NC(=O)c4ccc(F)cc4)c3)C2C(=O)NC2CC2)cc1 (stereo unspecified)	2%
C=C1[C@@H](C)[C@H]2[C@H](Cc3ccccc3)NC(=O)[C@]23OC(=O)/C=C/C(=O)CCC[C@@H](C)C/C=C/[C@H]3[C@@H]1O	2.5µM*

Further entries follow:
SMILES	nsP2pro inh
O=C(C[C@H]1CC[C@@H](C(=O)Nc2ccc(S(=O)(=O)Nc3nccs3)cc2)C1)c1ccccc1	i
Cc1nc2c(c(-c3ccc(Cl)cc3)n1)CCN(C(=O)N(C)C)CC2	-1%
CC(=O)c1ccc(NS(=O)(=O)c2ccc(-c3cc(C)no3)s2)cc1	-10%
CCCc1cc(=O)c2ccccc2n1C	i
O=C1Nc2ccccc2C(O)(c2ccccc2)C1O (stereo unspecified)	-15%
COc1ccc(OC)c(S(=O)(=O)NCCS(=O)(=O)N2CCN(c3ccccc3F)CC2)c1	-10%
COC[C@@H]1CN(C(=O)c2ncccc2C)C[C@H]1C(N)=O	i
Cc1ccc([C@@H]2CN(C(=O)c3c(-c4ccccc4)noc3C)C[C@H]2N(C)C)cc1	?
Nc1ccc(S(=O)(=O)c2ccc(N)cc2)cc1	-8%&13%
CCOc1ccc(CNC(=O)CCn2cccn2)cc1OC	-18%
CCCc1nn2c(=O)cc(COC(=O)c3ccco3)nc2s1	-7%
C/C=C/C(=O)OC1/C=C/C(O)C(OC(C)=O)CCC(=O)OC1C (stereo unspecified)	-4%
O=C(NCCN1CCCC1)c1cc(-c2ccc(CN3CCOCC3)cc2)nc2ccc(F)cc12	-6%[10 µM]
CCOC(=O)c1ccccc1NC(=O)Cn1c(=O)n(CCCC(=O)NCc2ccc3c(c2)OCO3)c(=O)c2ccccc21	-14%
O=C(NCc1ccco1)c1ccc2c(c1)N(Cc1c(F)cccc1Cl)C(=O)CS2	?
O=C(c1cc(-c2cccnc2)c2nncn2n1)N1CCOCC1	2%
Clc1cccc(C(c2ccc3nc[nH]c3c2)n2ccnc2)c1 (stereo unspecified)	82%[activator]
CCC(C)(OC(C)=O)C(=O)O[C@H]1[C@H](OC(C)=O)[C@]2(CO)[C@H](O)[C@H](O)[C@]3(C)C(=CCC4[C@@]5(C)CC[C@H](O[C@@H]6O[C@H](C(=O)O)[C@@H](O)[C@H](O[C@@H]7OC[C@H](O)[C@H](O[C@@H]8OC[C@H](O)[C@H](O)[C@H]8O)[C@H]7O)[C@H]6O[C@@H]6O[C@H](CO)[C@@H](O)[C@H](O)[C@H]6O)C(C)(C)C5CC[C@]43C)[C@@H]2CC1(C)C (stereo partly specified)	19%[5.1 µM]
Cc1noc([C@@H](C)NCc2cccc(Cl)c2)c1C(=O)O	i
COC(=O)C1CCN(C(=O)c2ccc3c(c2)ncn3-c2cccc(C)c2)CC1	-11%
O=C(c1ccoc1)N1CCC(Nc2cccn3ncnc23)CC1	-4%
CCC(c1ccccc1)c1c(O)c2ccccc2oc1=O (stereo unspecified)	-6%
CC(=O)Nc1sc2c(c1-c1cccs1)CCNC2	-2%
C=CC(C)(/C=C/c1ccc(O)cc1)CCC=C(C)C (stereo unspecified)	-4%
O=C(CNC(=O)c1ccccc1F)OCc1cc(=O)n2nc(C3CC3)sc2n1	-13%

Another view of part of the listing above:
structure | nsP2pro inh
Cc1nc2c(c(-c3ccc(Cl)cc3)n1)CCN(C(=O)N(C)C)CC2 | -1%
O=C(C[C@H]1CC[C@@H](C(=O)Nc2ccc(S(=O)(=O)Nc3nccs3)cc2)C1)c1ccccc1 | i
CCC(C)(OC(C)=O)C(=O)O[C@H]1[C@H](OC(C)=O)[C@]2(CO)[C@H](O)[C@H](O)[C@]3(C)C(=CCC4[C@@]5(C)CC[C@H](O[C@@H]6O[C@H](C(=O)O)[C@@H](O)[C@H](O[C@@H]7OC[C@H](O)[C@H](O[C@@H]8OC[C@H](O)[C@H](O)[C@H]8O)[C@H]7O)[C@H]6O[C@@H]6O[C@H](CO)[C@@H](O)[C@H](O)[C@H]6O)C(C)(C)C5CC[C@]43C)[C@@H]2CC1(C)C (stereo partly specified) | 19%[5.1 µM]

(more compounds)
SMILES	nsP2pro inh
CCN1C(=O)C2CC3(CCN(S(C)(=O)=O)CC3)CN2C1=O (stereo unspecified)	1%
Cc1nn2c(c1-c1ccccc1[S+](C)(=O)[O-])N(CCCc1ccccc1)CCC2	-8%[39.2 µM]
COc1ccccc1-c1cc([C@H]2CN3CC[C@H]2C[C@@H]3CNS(=O)(=O)c2ccccc2)n(C)n1	-2%
Cc1ccc2nc(C(=O)N3CCCC3c3cc(C(C)C)on3)cn2c1 (stereo unspecified)	i
CCC1CN(S(=O)(=O)c2ccc3c(c2)NC(=O)CC(=O)N3)c2cc(Cl)ccc2O1 (stereo unspecified)	-9%
CC(=O)N1CCc2cc(Br)cc(S(=O)(=O)CCC(=O)N3CCN(c4cccc(C)c4C)CC3)c21	-12%
CCCCNC(=O)CSc1nc2cc3c(cc2c(=O)n1CCCC(=O)NCc1ccc(OC)cc1)OCO3	-21%
Cc1ccc(-n2ccnc(NCc3cccs3)c2=O)cc1C	-17%
O=C(CSCc1cnn(-c2ccccc2)c1-n1cccc1)NCc1ccccc1Br	-7%
CCOc1ccc(NC(=O)NCCc2noc(C)n2)cc1	-4%
Clc1cccc(-c2nc(-c3ccc(-c4nn[nH]n4)cc3)no2)c1	3%
COc1cc(Nc2nc(-c3ccncc3)nc3ccccc23)ccc1F	4%
CC1CCCCN1C(=O)C1COC2(CCN(C(=O)c3ccco3)CC2)N1C(=O)c1ccccc1 (stereo unspecified)	-20%
C=C1C(=O)O[C@@H]2[C@H]3O[C@]3(C)CC/C=C(\C)CC[C@@H]12	-5%
COc1ccc(NC(=O)[C@@H]2C[C@H](c3ccc(F)cc3)N(Cc3csc(C)n3)C2)cn1	?
CCN1CCN(C(=O)c2ccc(-c3nnc4ccc(NC(=O)C5CC5)cn34)cc2)CC1	i
CCCCCOC(=O)CSc1ncnc2sc3c(c12)CCC(C)C3 (stereo unspecified)	-25%
C=CCNC(=O)N[C@H]1[C@H](O)[C@@H](NCCOC)[C@@H]2OC[C@H]1O2	4%[39.2 µM]
CC1(CO)CC[C@]2(C(=O)O[C@@H]3O[C@H](CO)[C@@H](O)[C@H](O)[C@H]3O)CC[C@]3(C)C(=CCC4[C@@]5(C)C[C@H](O)[C@H](O[C@@H]6OC[C@@H](O)[C@H](O)[C@H]6O)[C@@](C)(CO)C5CC[C@]43C)C2C1 (stereo partly specified)	?
NC(=O)Cn1ccn2nc3c(c2c1=O)CCCC3	4%
CCc1cc(N2CCN(C(=O)[C@H]3CCC[C@@H](O)C3)CC2)ncn1	3%
CC1=C(C(=O)OC2CCCCC2)C(c2ccc([N+](=O)[O-])cc2)C2=C(CC(C)(C)CC2=O)N1 (stereo unspecified)	-11%
O=S(=O)(c1cc(F)ccc1F)N1CCCC1c1nncn1Cc1ccncc1 (stereo unspecified)	-16%
CCOC(=O)c1cccc(NC(=O)CSc2cc(=O)n(C)c3ccccc23)c1	-21%
CC(C)(C)c1ccc(OCc2cc(=O)n3c4c(sc3n2)CCCC4)cc1	?

Following part
SMILES	nsP2pro inh
CCN(CC)S(=O)(=O)c1ccc2c(c1)c(=O)c(C(=O)NCCc1ccc(OC)c(OC)c1)cn2C	-7%
Cc1ccc(-n2nc3ccc(NC(=O)c4oc5ccccc5c4C)cc3n2)cc1	-18%
O=C(NCC1CN(Cc2cccc(O)c2)CC12CN(c1ccccc1)C2)c1ccccc1 (stereo unspecified)	-7%[39.2 µM]
Cc1ccccc1Sc1ccc(/C=C2\SC(=S)NC2=O)cc1[N+](=O)[O-]	83%[activator]
Cc1cc(C)c2c(=O)cc(CSc3nnc(COc4ccccc4C)n3C)[nH]c2c1	0%
CCC(C)/C=C(C)/C=C/C(=O)C1CCC(O)C(C)(O)C1=O (stereo unspecified)	?
CCN(CC)Cc1nnc2cc(-c3nc(-c4ccccc4)no3)ccn12	i
NS(=O)(=O)Cc1noc2ccccc12	-5%
COc1cc(OC)cc(-c2nc3nc(C)c(CCC(=O)Nc4ccccc4)c(C)n3n2)c1	-12%
COCCCn1c(=O)[nH]c2cccnc21	?
O=C(NC1CCN(Cc2ccccc2)CC1)c1cccc2c1CCN2C(=O)c1ccccc1	-4%
COc1cc2ccccc2cc1C(=O)Nc1ccc(Cl)c(-c2nc3ccccc3o2)c1	-25%
C[C@@H]1O[C@@H](O[C@H]2[C@H](OC(=O)[C@]34CCC(C)(C)C[C@H]3C3=CCC5[C@@]6(C)C[C@H](O)[C@H](O[C@@H]7O[C@H](CO)[C@@H](O[C@H]8OC[C@](O)(CO)[C@H]8O)[C@H](O)[C@H]7O)[C@@](C)(CO)C6[C@H](O)C[C@@]5(C)[C@]3(C)C[C@H]4O)OC[C@H](O)[C@@H]2O)[C@H](O)[C@H](O)[C@H]1O[C@@H]1OC[C@@H](O)[C@H](O[C@@H]2OC[C@](O)(CO)[C@H]2O)[C@H]1O (stereo partly specified)	-3%[5.1 µM]
COC(=O)c1ccccc1NC(=O)Cn1c(=O)n(CCC(=O)NCc2ccccc2OC)c(=O)c2ccccc21	-16%
Cc1ccc(S(=O)(=O)Nc2cc(F)c(F)cc2C(=O)Nc2nc(-c3ccccc3)cs2)cc1	i
CC(=O)N1CCc2cc(CNS(=O)(=O)c3ccccc3C(F)(F)F)ccc21	?
CC1CCCN(c2ncnc3c2nc2n3CCCCC2)C1 (stereo unspecified)	-14%
Cn1nnnc1Sc1ncnc2scc(-c3ccccc3[N+](=O)[O-])c12	0%
N#Cc1ccc(OC2=NS(=O)(=O)c3ccccc32)cc1	-4%
CN(Cc1ccc(F)cc1)S(=O)(=O)c1nnc(NC(=O)c2ccccc2Cl)s1	0%
O=C(NCc1cccc(C(F)(F)F)c1)C1(CCO)CC12CCN(c1ncccn1)CC2 (stereo unspecified)	1%
COc1ccccc1-c1noc(CCC(=O)N2CCC(Cc3noc(C)n3)CC2)n1	i
Cc1cn2nc([C@@H]3CCCCN3C(=O)c3cc(Cl)ccc3NS(C)(=O)=O)cc2nc1N1CC[C@H](N)C1	8%[10 µM]
CCCn1c(C)nc2c(NC(C)CCCN(CC)CC)nc(C)nc21 (stereo unspecified)	-9%

Exported with each value named: 4 of the compounds above.
C=C1C(=O)O[C@@H]2[C@H]3O[C@]3(C)CC/C=C(\C)CC[C@@H]12
- nsP2pro inh: -5%

COC(=O)c1ccccc1NC(=O)Cn1c(=O)n(CCC(=O)NCc2ccccc2OC)c(=O)c2ccccc21
- nsP2pro inh: -16%

C=C1[C@@H](C)[C@H]2[C@H](Cc3ccccc3)NC(=O)[C@]23OC(=O)/C=C/C(=O)CCC[C@@H](C)C/C=C/[C@H]3[C@@H]1O
- nsP2pro inh: 2.5µM*

COc1cc2ccccc2cc1C(=O)Nc1ccc(Cl)c(-c2nc3ccccc3o2)c1
- nsP2pro inh: -25%

Random excerpt: 5 entries already listed.
SMILES	nsP2pro inh
CC1CCCN(c2ncnc3c2nc2n3CCCCC2)C1 (stereo unspecified)	-14%
COc1cc(OC)cc(-c2nc3nc(C)c(CCC(=O)Nc4ccccc4)c(C)n3n2)c1	-12%
Cc1cn2nc([C@@H]3CCCCN3C(=O)c3cc(Cl)ccc3NS(C)(=O)=O)cc2nc1N1CC[C@H](N)C1	8%[10 µM]
CN(Cc1ccc(F)cc1)S(=O)(=O)c1nnc(NC(=O)c2ccccc2Cl)s1	0%
COCCCn1c(=O)[nH]c2cccnc21	?

A portion of the library, so the mix of outcomes need not match the whole.
